Ba CapD inh – inhibitors of Bacillus anthracis CapD enzyme. purified CapD enzyme, fluorescence intensity read-out; active compounds read low; some hits fall short of the stated cut. AID 492967. z-score (concentration not given with the values). 140,000 tested, 0.23% active;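 active = z-score under -4 in either of two replicates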;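 also: stock transfer was 100 nL into about 40 µL; score is relative to mean and spread of the plate; one replicate is shown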
AID504770 – E. coli YBA685 growth inhibition, screen for V. cholerae RctB inhibitors | E. coli YBA685 rctB-dependent plasmid, OD600 growth, 3 h; active compounds read low | z-score (concentration not given with the values) | 130,000 tested, 0.27% active;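 active = z-score under -2 on both plates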;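 also: wells of about 30 µL received 100 nL stock; score is relative to mean and SD of the test wells; the first replicate is given; strong numbers were not always called active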
* hit, by the source's call; · = not tested or not shown; & = joins results of further samples. This is a subset; the hit share may differ from the screen's.

SMILES | Ba CapD inh | AID504770
O=C(/C=C/c1cc2c(cc1Br)OCO2)NCc1cccs1 | 5 | ·
NCC(O)COc1ccc2c(c1)OCO2 (stereo not drawn) | 0.1 | 1.2
COC(=O)c1ccccc1CSc1ccccc1C(=O)O | -0.23 | ·
Cc1cccc(C(=O)N2CC(C)CC(C)C2)c1 (stereo not drawn) | -0.25 | -0.35
CCOc1cc(CN2CCN(CC3CC4C=CC3C4)CC2)ccc1OC (stereo not drawn) | · | 2.1
CNC(=S)N/N=C(\C)c1ccc2c(c1)OCCO2 | · | -0.65
CN(C)/C=N/c1c(-c2nc(-c3ccc(Cl)cc3)cs2)cnn1C | -0.68 | -0.75
COc1ccc(N2C(=O)CC(N3CCN(C(c4ccc(F)cc4)c4ccc(F)cc4)CC3)C2=O)cc1 (stereo not drawn) | 0.065 | -0.4
COc1nc(N)nc(OC)n1 | 0.6 | ·
N/C(=N/OC(=O)Nc1ccc(Cl)cc1)c1ncc(C(F)(F)F)cc1Cl | -0.55 | ·
COC(=O)C1CN(C(=O)c2cccc(OC)c2)c2ccccc2O1 (stereo not drawn) | -0.35 | 0.55
COc1ccc(C2=Nc3ccccc3N=C(c3ccc4ccccc4c3O)C2)cc1 | 1.9 | 0.6
COc1cc(OC)cc(C(=O)N(c2ccccn2)c2ccccn2)c1 | · | -0.45
COc1ccccc1N1C(=O)/C(=C/c2ccc(-c3ccc([N+](=O)[O-])cc3)o2)C=C1c1ccccc1 | -0.96 | ·
CCN(CC)c1ccc(N=Cc2ccccc2O)cc1 | -0.71 | -0.85

In a second layout: results already given
Each structure is followed by: Ba CapD inh | AID504770
CCOc1cc(CN2CCN(CC3CC4C=CC3C4)CC2)ccc1OC (stereo not drawn)
 : · | 2.1
CNC(=S)N/N=C(\C)c1ccc2c(c1)OCCO2
 : · | -0.65
CN(C)/C=N/c1c(-c2nc(-c3ccc(Cl)cc3)cs2)cnn1C
 : -0.68 | -0.75

The main list resumes with the two entries that preceded the break.
SMILES | Ba CapD inh | AID504770
COc1ccccc1N1C(=O)/C(=C/c2ccc(-c3ccc([N+](=O)[O-])cc3)o2)C=C1c1ccccc1 | -0.96 | ·
CCN(CC)c1ccc(N=Cc2ccccc2O)cc1 | -0.71 | -0.85
O=C(C1CCC1)N1CCc2cc(S(=O)(=O)NCCN3CCOCC3)ccc21 | 0.15 | -0.1
O=C(NCCc1ccccc1)C1CCC(=O)N1CCc1ccccc1 (stereo not drawn) | -0.025 | -0.05
O=C(CCn1c(=O)oc2ccccc21)Nc1nccs1 | -0.83 | -0.1
O=C(N/N=C/c1cnc(S(=O)(=O)c2ccccc2)s1)c1ccco1 | -0.46 | ·
CC(O)c1nc2ccccc2n1Cc1cccc2ccccc12 (stereo not drawn) | 0.29 | -0.45
O=C(CNC(=O)c1ccncc1)N/N=C/c1ccc([N+](=O)[O-])s1 | -1.3 | ·
Cc1nc(C)c(C(=O)O)o1 | · | -1
CCN1c2ccccc2C(=O)CS1(=O)=O | 2.1 | -0.85
Cc1ccc(NC(=O)CSc2ccc(C(F)(F)F)cn2)cc1C#N | 0.15 | 0.45
CCN1CCN(C(=O)/C=C/c2ccc(OC)c(OC)c2)CC1 | 7.6 | -0.3
CCN1CCCC1CNC(=O)c1ccc2c(c1)N(Cc1ccccc1)C(=O)c1ccccc1S2(=O)=O (stereo not drawn) | -2.2 | 0.15
C/C(=C\c1ccccc1Cl)[N+](=O)[O-] | -1.2 | ·
CCOc1ccccc1Oc1coc2cc(OC(=O)N(C)C)ccc2c1=O | 0.39 | -1.5
CC(C)OC(=O)COc1ccc2c(c1)OC1(CC2c2ccccc2)CC(C)(C)NC(=O)N1 (stereo not drawn) | 0.54 | 1
COc1cc(/C=N/N2C(=O)c3ccccc3C2=O)ccc1OCC(=O)N1CCOCC1 | · | -0.55

6 records drawn at random from the list so far, as already listed:
SMILES | Ba CapD inh | AID504770
COc1cc(/C=N/N2C(=O)c3ccccc3C2=O)ccc1OCC(=O)N1CCOCC1 | · | -0.55
CC(C)OC(=O)COc1ccc2c(c1)OC1(CC2c2ccccc2)CC(C)(C)NC(=O)N1 (stereo not drawn) | 0.54 | 1
O=C(CNC(=O)c1ccncc1)N/N=C/c1ccc([N+](=O)[O-])s1 | -1.3 | ·
CCN1CCN(C(=O)/C=C/c2ccc(OC)c(OC)c2)CC1 | 7.6 | -0.3
O=C(CCn1c(=O)oc2ccccc21)Nc1nccs1 | -0.83 | -0.1
CCOc1ccccc1Oc1coc2cc(OC(=O)N(C)C)ccc2c1=O | 0.39 | -1.5

Continuation:
SMILES | Ba CapD inh | AID504770
CC(C(=O)O)n1cnc2scc(-c3ccc(Br)cc3)c2c1=O (stereo not drawn) | -0.24 | 0.15
CN1/C(=C/C(=O)CC(N)=O)C(C)(C)c2ccccc21 | 12 | -0.6
O=C(c1ccccc1)n1nnc2ccccc21 | · | 1.4
O=C(Cn1c2ccccc2c2cn[nH]c(=O)c21)NCc1cccnc1 | -1.2 | 0.45
O=C1CCCC(=NCc2ccco2)C1 | 0.3 | 0.4
COc1ccc(CC(=O)NCC2OCCc3ccccc32)cc1OC (stereo not drawn) | · | 0.1
CCOC(=O)c1cc(NC(=O)Nc2ccc(C)c(Cl)c2)ccc1N1CCCCC1 | 0.66 | ·
O=C1Nc2ccccc2/C1=C\c1ccc(Cl)cc1 | -1.8 | 1.2
CCN(CCS(=O)(=O)c1ccc(C)cc1)C(=O)c1ccc(-c2cc(C(F)(F)F)nn2C)s1 | 0.17 | 0.1
NC(=O)CN1C(=O)CCSc2ccccc21 | 0.14 | -1.2
O=C(O)c1cc2cc(Cl)ccc2o1 | · | -1.1
CSc1nnc(COc2ccc(Cl)cc2)n1C | · | 1.2
CN(C)CCNC(=O)c1ccc(=O)n(Cc2c(Cl)cccc2Cl)c1 | -0.61 | ·
CCOc1ccc(NC(C(=O)O)c2ccccc2)cc1 (stereo not drawn) | 0.88 | ·
N#CC1(c2ccccc2)CCC(=O)CC1 | · | 0.4
CC(=O)N1[C@@H](C2C(=O)NN=C2C)C[C@H](C)N1c1ccccc1 (stereo partly drawn) | 0.31 | -0.45
COc1cc(OC)nc(C2CCN(C(=O)CCC(=O)N3CCN(c4ccccn4)CC3)CC2)n1 | 5.3 | ·
CC(C)C(NS(=O)(=O)c1cccc(C(F)(F)F)c1)C(=O)O (stereo not drawn) | · | -1.5
C=CCN1CCN(C(=O)c2csc3ccccc23)CC1 | -0.16 | -0.85
O=C(CCc1c[nH]c2ccccc12)N1CCC2(CC1)OCCCO2 | 0.025 | ·
COC(=O)c1sc(C(F)(F)F)c(-c2ccccc2)c1S(=O)(=O)N1CCOCC1 | 0.6 | -0.65
CC(C)NC(=O)c1ccccc1NC(=O)c1ccco1 | · | 0.3
Cc1cccc(CN2CCC(C(=O)N3CCC(C)CC3)CC2)c1 | · | 1.1
COc1ccccc1NC(=O)c1sc(=S)n(-c2ccc(C)cc2C)c1N | -0.67 | ·
CC(C)NS(=O)(=O)c1ccc(NC(=O)C(C)OC(=O)c2ccc(CO)cc2)cc1 (stereo not drawn) | · | -0.9
Cc1cc(C(=O)CN(Cc2ccco2)S(=O)(=O)c2ccccc2)c(C)n1C | · | -0.3
CC(C(N)=O)N(c1ccc(Cl)cc1)S(C)(=O)=O (stereo not drawn) | 0.18 | 1.6
Cc1ccc(C(=O)n2c(O)c(C3=NCCCCC3)c3ccccc32)cc1 | -1.9 | 1.7
CCOC(=O)c1c(S(=O)(=O)N2CCCc3ccccc32)c(C)n(C)c1C | 0.09 | -0.15
COc1cc2c(cc1-c1cc3cc4ccoc4cc3oc1=O)OCO2 | · | 0.55
CCCCNC(=O)c1cnn2c(C(F)F)cc(-c3ccccc3)nc12 | 1.4 | 1.1
CCOC(=O)c1c(SC)[nH]c2c(Cl)cccc2c1=O | -0.17 | 0.7
COc1ccc(NC(=O)c2ccc(N3CC4CC(C3)c3cccc(=O)n3C4)c(NC(=O)c3ccc(F)cc3)c2)cc1Cl (stereo not drawn) | -0.1 | ·
Oc1c(Cl)cc(Cl)cc1C=Nc1cc(C(F)(F)F)cc(C(F)(F)F)c1 | -0.45 | ·
O=C1/C(=C/c2ccc(Cl)cc2)C=C(c2ccccc2)N1c1cccc([N+](=O)[O-])c1 | -0.3 | ·
O=C(c1ccccc1)c1ccccc1Br | -0.51&0.05 | 1.6&0.1
CC1=C(C)/C(=N\S(=O)(=O)c2ccc(C)cc2)C=C(N2CCOCC2)C1=O | · | -0.65
CCC1CCCCN1C(=O)C1=CC(c2ccc(OC)cc2)=NS(=O)(=O)N1C (stereo not drawn) | 5.5 | 1.5
COc1ccccc1C(=O)N1CCCC1COC(=O)N1CCCC1C(=O)OCc1ccccc1 (stereo not drawn) | -0.56 | ·
O=C(Nc1nnc(N2CCCCC2)s1)NC12CC3CC(CC(C3)C1)C2 | 0.065 | -0.4
CN1CCN(C(=O)C23CC4CCC2(C)C4(C)CO3)CC1 (stereo not drawn) | -0.4 | ·
COc1ccc(C2NCCc3[nH]cnc32)cc1OC (stereo not drawn) | 2.4 | 1.7
O=C(Cn1c2ccccc2c(=O)c2ccccc21)NCc1cccc(OC(F)(F)F)c1 | 9.4 | ·
COC(=O)C1=CN(Cc2ccc(Cl)cc2)C=C(C(=O)OC)C1c1ccc(F)c(Br)c1 | 59 | ·
O=C(O)CC(CC(=O)Nc1cc(C(F)(F)F)cc(C(F)(F)F)c1)c1ccc(Cl)cc1Cl (stereo not drawn) | -0.31 | -0.85

The closing 6 records of the section before open the next one.
SMILES | Ba CapD inh | AID504770
O=C(Nc1nnc(N2CCCCC2)s1)NC12CC3CC(CC(C3)C1)C2 | 0.065 | -0.4
CN1CCN(C(=O)C23CC4CCC2(C)C4(C)CO3)CC1 (stereo not drawn) | -0.4 | ·
COc1ccc(C2NCCc3[nH]cnc32)cc1OC (stereo not drawn) | 2.4 | 1.7
O=C(Cn1c2ccccc2c(=O)c2ccccc21)NCc1cccc(OC(F)(F)F)c1 | 9.4 | ·
COC(=O)C1=CN(Cc2ccc(Cl)cc2)C=C(C(=O)OC)C1c1ccc(F)c(Br)c1 | 59 | ·
O=C(O)CC(CC(=O)Nc1cc(C(F)(F)F)cc(C(F)(F)F)c1)c1ccc(Cl)cc1Cl (stereo not drawn) | -0.31 | -0.85
O=C1c2ccccc2SC(c2ccccc2)N1C1CC1 (stereo not drawn) | -0.3 | ·
CCCCOC(=O)c1ccc(NCN2C(=O)S/C(=C/c3ccc(C(=O)OC)cc3)C2=O)cc1 | 0.76 | ·
O=C(NNC(=O)c1ccco1)OCCc1ccc(Br)cc1 | -0.53 | ·
COc1ccc(/C=C/C=C2/SC(=O)N(CC(=O)N3CCCC3)C2=O)cc1 | · | -1.1
CCC(C)NC(=O)C1CC(c2ccccc2F)=NO1 (stereo not drawn) | 0.58 | -0.35
CC(N=Cc1cccc(O)c1O)c1ccccc1 (stereo not drawn) | · | 0.8
COc1ccc(C2CC(C(F)(F)F)n3ncc(C(=O)N4CCN(c5ccccc5Cl)CC4)c3N2)cc1OC (stereo not drawn) | -0.11 | ·
CCc1ccc(NC(=S)Nc2ccccc2C(C)C)cc1 | 0.9 | -0.1
CC1(C)CC(=O)C2=C(C1)c1c(ccc3ccccc13)NC2c1cc([N+](=O)[O-])c(N2CCCCC2)cc1N1CCCCC1 (stereo not drawn) | -0.51 | ·
O=C1NC2(CCCC2)C(=O)N1CCSc1ccccc1F | · | -0.3
COc1cc(/C=C2\C(=O)NC(=O)N(c3ccc4c(c3)OCO4)C2=O)ccc1OCc1ccc(C(=O)O)cc1 | -0.39 | ·
O=C(Nc1ccc(Oc2ccc(Cl)c3ccccc23)c(Cl)c1)c1cc(Cl)ccc1O | 50 | ·
O=C(NCc1noc2ccccc12)Nc1ccc2c(c1)OCCO2 | -0.64 | -1.4
COC(=O)c1ccccc1NC(=O)c1cc(C2CC2)on1 | -0.66 | -1.3
Cc1ccc(C(=O)Cn2c(=N)n(C)c3ccccc32)cc1 | 0.49 | -0.8
COC(=O)c1ccc(OCc2ccc(Cl)c(Cl)c2)cc1 | -0.57 | 0.2
O=C1CCN(C(=O)CCCn2c(=O)oc3ccccc32)CC1 | · | -0.1
O=C(O)C1CC(=O)N(CCc2ccccc2)C1 (stereo not drawn) | 1.2 | 1.1
CC(Oc1ccccc1)c1nc2ccccc2n1CCOc1ccccc1 (stereo not drawn) | -0.23 | -0.4
COc1ccc(-c2noc(CCC(=O)NCCCN3CCC(Cc4ccccc4)CC3)n2)cc1 | -0.58 | 2
Cc1ccc(C(=O)C(C)OC(=O)c2cc3ccccc3oc2=O)cc1 (stereo not drawn) | 1.3 | 0.05
Cn1c(SCc2cc(=O)oc3cc(O)c(O)cc23)nc2ccccc21 | · | 0.75
CN(c1ccc([N+](=O)[O-])cc1Cl)C1CCCCC1 | -0.94 | ·
CCOC(=O)CC1=NC(=O)CS1 | 0.62 | 1.6
CN(CC(=O)NCCc1ccc(S(N)(=O)=O)cc1)Cc1cccs1 | · | -0.85
O=S(=O)(NCc1ccccc1)c1cc(Br)c(Br)s1 | -0.45 | 0.55
CCC(C)C(=O)Nc1ccc(OC)cc1 (stereo not drawn) | 0.41 | -1.1
CC(=O)OC1CCC2(C=O)C3CCC4(C)CC(C5=CC(=O)OC5)CC4(O)C3CCC2(O)C1 (stereo not drawn) | 4.7 | ·
CCCc1cc(=O)[nH]c(SCc2ccccc2Cl)n1 | 0.16 | ·
Cc1ccc(C(C(=O)NC2CCCC2)N2CCC3(CC2)OCCO3)cc1 (stereo not drawn) | -0.12 | -0.15
CCN(CC)CCN(CC)S(=O)(=O)c1ccc2c(c1)CN(C(=O)C(F)(F)F)CC2 | -0.46 | ·
OC(CNCc1ccc2c(c1)OCO2)COc1ccc(F)cc1 (stereo not drawn) | -0.3 | -1.2
COc1ccc(/C(C#N)=C/c2ccc(OC)c(OC)c2)cc1 | 7.2 | ·
Cc1sc2ncn(CC(=O)NCC(=O)N3CCN(Cc4ccccc4)CC3)c(=O)c2c1C | -0.33 | ·
Cc1nc(N(C)c2ccc(C(C)C)cc2)c2c(C)c(C(=O)NCCCN3CCOCC3)sc2n1 | -0.55 | ·
Cc1cccc(OCC(O)CN)c1 (stereo not drawn) | · | -0.4
